Cruzain inh noDet = cruzain (T. cruzi) inhibition without detergent. Potency, µM, for the others: max response, negative = inhibition, usual class: inhibitors. AID 1476. 200,000 compounds, 2.3% hits. P25779. purified cruzain, Z-FR-AMC fluorescence, no detergent; active means well fitted curve in the direction sought with a large enough effect; inconclusive means small, poorly fitted or top-dose-only effect, or another doubt; inactive means no such curve, though single readings can be large; an effect the other way counts as inactive or inconclusive;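 further: plate controls were enzyme without inhibitor for no effect and buffer without enzyme for full effect; nearly all actives have a fitted effect of over 40% in size; top concentration of the series not given in the record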
Target sequence (P25779 123-467 limits assumed): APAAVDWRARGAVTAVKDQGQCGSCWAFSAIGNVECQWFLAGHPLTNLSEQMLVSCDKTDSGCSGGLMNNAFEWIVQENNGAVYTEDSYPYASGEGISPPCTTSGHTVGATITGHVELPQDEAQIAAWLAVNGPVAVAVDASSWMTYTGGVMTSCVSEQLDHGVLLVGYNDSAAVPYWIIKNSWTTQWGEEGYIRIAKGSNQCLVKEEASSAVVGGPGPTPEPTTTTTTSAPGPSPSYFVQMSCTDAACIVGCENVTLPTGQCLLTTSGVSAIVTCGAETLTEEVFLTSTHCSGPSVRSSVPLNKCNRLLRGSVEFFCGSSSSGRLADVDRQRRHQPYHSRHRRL
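Detergent-free condition (0.00005% Triton X-100) in acetate buffer pH 5.5 with DTT. 1.5 nM enzyme and compound were pre-mixed 15 min, then 2 uM Z-FR-AMC substrate added; reaction progress from fluorescence change between first and third reads (60 s).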
NS1 inh = inhibitors of influenza NS1 protein function | S. cerevisiae slowed by influenza A NS1, growth recovery by OD600 | Potency, µM (titrated, usually from 46.1 µM), without a hit: at the top dose activity, positive = more growth | 270,000 compounds, 0.4% hits; further: actives are rising curves; nearly all actives have a fitted effect of over 50% in size
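A cell-based growth assay was used: compounds that relieve NS1-induced slow growth of budding yeast raise OD600. Assay medium was yeast nitrogen base with ammonium sulphate and -URA supplement, pH 6.0, with 2% galactose.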
StopGo reporter = lowers the luciferase signal of an FMDV 2A StopGo reporter | human cells with a luciferase reporter of 2A StopGo recoding; control for the full effect not named in the record | Potency, µM (doses to about 57.9 µM), for inactives: at the top dose signal change, negative = less light | 410,000 compounds, 1.2% hits | AID 1159524; active = well fitted falling curve with a large enough effect; inconclusive = small, poorly fitted or top-dose-only effect; inactive = no such curve, though single readings can be large or run the other way; tested in HEK293T cells; further: on the % scale 0 is the no-effect control and ±100 the full control effect; nearly all actives have a fitted effect of over 45% in size; luciferase light after 4 h
Cruzain inh Det = inhibitors of Trypanosoma cruzi cruzain with detergent; P25779; purified cruzain, Z-FR-AMC fluorescence, 0.01% Triton; Potency, µM, for inactives: max response, negative = inhibition, actives largely listed as inhibitors; 200,000 compounds, 0.43% hits; AID 1478; active means well fitted curve in the direction sought with a large enough effect; inconclusive means small, poorly fitted or top-dose-only effect, or another doubt; inactive means no such curve, though single readings can be large; an effect the other way counts as inactive or inconclusive;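 further: plate controls were neutral wells for no effect and buffer without enzyme for full effect; nearly all actives have a fitted effect of over 40% in size; top concentration of the series not given in the record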
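Read-out: AMC fluorescence (360 nm excitation, 450 nm emission), four reads over 2 min, first-to-third difference used. Conditions: cruzain 1.5 nM, Z-FR-AMC 2 uM, pH 5.5 acetate, 5 mM DTT, 0.01% Triton X-100.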
MARV entry inh = blocks Marburg virus binding to or entry into cells; Potency, µM (doses to about 37.8 µM), without a hit: at the top dose activity change, negative = inhibition, actives largely listed as inhibitors; 300,000 compounds, 1.8% hits; Marburg virus pseudotyped entry inhibition, cell reporter; control for the full effect not named in the record; about a third of the inactives were read at about 46 µM; active = well fitted inhibition curve with a large enough effect; inconclusive = small, poorly fitted or top-dose-only effect, or effect the other way; inactive = flat fitted curve, though single readings scatter; tested in HEK293 cells; about a fifth of its hits are not listed in these tables; further: on the % scale 0 is the no-effect control and ±100 the full control effect; luciferase read-out
LASV entry inh = inhibitors of Lassa virus binding or cell entry. Lassa virus pseudotype entry inhibition, cell reporter; control for the full effect not named in the record. AID 540256. 300,000 compounds, 1.2% hits. Potency, µM (titrated, usually from 37.9 µM), inactives show at the top dose activity change, negative = inhibition, usual class: inhibitors; active means well fitted inhibition curve with a large enough effect; inconclusive means small, poorly fitted or top-dose-only effect, or effect the other way; inactive means flat fitted curve, though single readings scatter; tested in HEK293 cells; further: on the % scale 0 is the no-effect control and ±100 the full control effect; nearly all actives have a fitted effect of over 50% in size; luciferase read-out
SARS PLP yeast = inhibitors of SARS-CoV papain-like protease in yeast | S. cerevisiae expressing SARS-CoV PLpro, growth rescue; control for the full effect not named in the record | 330,000 compounds, 0.19% hits | Potency, µM (series often up to 32.9 µM), inactives show at the top dose activity, positive = growth rescue; further: 0% is about no effect; nearly all actives have a fitted effect of over 55% in size; growth read by luminescence after 48 h
RE007 growth inh = less growth of the S. pombe RE007 Vpr strain | S. pombe RE007 Vpr strain, BacTiter-Glo ATP luminescence, 24 h; control for the full effect not named in the record | Potency, µM (doses to about 92.2 µM), for inactives: at the top dose activity change, negative = less growth | 360,000 compounds, 0.21% hits | AID 651644; active = well fitted falling curve with a large enough effect; inconclusive = small, poorly fitted or top-dose-only effect; inactive = no such curve, though single readings can be large or run the other way;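 further: on the % scale 0 is the no-effect control and ±100 the full control effect; nearly all actives have a fitted effect of over 50% in size; the assay follows cell death caused by Vpr and the record does not say whether a fall means rescue or toxicity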
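Fission yeast RE007 carrying one integrated HIV-1 vpr copy, seeded at OD 0.01 in PMG+AL medium with 23 nL pinned compound. Grown 24 h at 30 degrees; viability read by BacTiter-Glo luminescence after 5 min.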
The depositor's hits bear a star; ? = inconclusive; . = not tested or not shown; & = joins results of further samples; [ ] = remark or other dose. Unless noted, the call rests on the fitted dose curve; in most records, active means well fitted rising curve with a large enough effect; inconclusive means small, poorly fitted or top-dose-only effect; inactive means no such curve, though single readings can be large or run the other way. Potency means the concentration at half of the fitted maximal effect.

SMILES | Cruzain inh noDet | NS1 inh | StopGo reporter | Cruzain inh Det | MARV entry inh | LASV entry inh | SARS PLP yeast | RE007 growth inh
COC(=O)c1ccccc1OP(=O)(c1cccc([N+](=O)[O-])c1)c1cccc([N+](=O)[O-])c1 | . | 7% | -8% | . | 22% | 3% | 0% | -6%
CCn1c(-c2ccc(N(C)C)cc2)nc2ccccc21 | -1% | -39% | -27% | -2.6% | ? | ? | -2% | -16%
CCOc1ccc(C(=O)NCC(=O)NCC(c2ccco2)N2CCCCC2)cc1 (stereo not given) | . | . | -2% | . | -17% | -4% | 0% | -14%
COc1ccccc1C(=O)OCC(=O)NC1CCCC1 | . | 5% | 24% | . | ? | ? | 3% | -2%
Cc1cc(N2CCOCC2)n2nc(C)c(-c3ccc(Cl)cc3)c2n1 | . | 7% | -25% | . | . | . | 0% | 0%
O=C(Nc1ccccc1)C1CCCCC1 | 7% | 2% | -8% | 2.3% | -6% | 10% | 10% | -14%
Nc1n[nH]c2cc(=O)n(-c3ccc(Cl)cc3)nc12 | . | 8% | 0% | . | . | . | 1% | 18%
CCN(CCn1cccn1)Cc1cn[nH]c1-c1cccc2ccccc12 | . | 1% | -13% | . | . | . | 0% | -13%
CC(C)(C)c1ccc(C(=O)N2CCC(C(=O)N3CCCCC3)CC2)cc1 | . | 6% | 21% | . | 19%[46.1 µM] | 22% | 0% | 3%
CCOc1ccc(-c2noc(CCC(=O)NC3CCCC3)n2)cc1OC | . | 2% | 21% | . | -11%[46.1 µM] | 5% | 2% | 15%
CC(C)c1ccc(OCC(O)CN2CCN(c3ccccn3)CC2)cc1 (stereo not given) | . | -11% | -15% | . | . | . | -9% | -10%
COc1ccc(NC(=O)c2c3c(nc4ccccc24)CCN(Cc2ccccc2)C3)c(OC)c1 | . | . | 18% | . | ? | ? | -9% | -10%
CC(C)NC(=S)NN=C1CCCCCCCCCCC1 | . | . | ? | . | ? | -5% | 1% | -3%
Cc1nonc1CN(C)C(=O)CC1C(=O)NCCN1Cc1cccc(C(F)(F)F)c1 (stereo not given) | . | 8% | -2% | . | 0%[46.1 µM] | -11%[46.1 µM] | 0% | 2%
Cc1cccc(N2CCN(C3(c4ccccc4)C(=O)c4ccccc4C3=O)CC2)c1C | -6% | . | -10% | -1.2% | . | 0%[46.1 µM] | . | .
COc1ccc(S(=O)(=O)N2CCC(C(=O)NCCC3=CCCCC3)CC2)cc1C | 5% | 9% | -27% | -2.0% | 1% | -9% | 5% | -15%
COc1ccc(NS(=O)(=O)c2c(C)n(C)c(=O)n(C)c2=O)cc1 | . | -2% | -17% | . | . | . | -2% | -4%
OC(CNCC#Cc1ccccc1)c1ccccc1 (stereo not given) | . | 7% | 1% | . | . | . | -1% | -16%
COc1ccc(C(=O)NC=C2C(=O)OC(C)(C)OC2=O)cc1 | . | 2% | -15% | . | -14%[14.2 µM] | 3% | 1% | 1%
Cc1sc2ncnc(N3CCC(C(=O)Nc4ccc(Br)cc4Br)CC3)c2c1C | . | . | 20µM* | . | 11µM* | ? | 0% | 23%
Cc1cc(-c2ccc(C(C)C)c(S(=O)(=O)Nc3ccccn3)c2)on1 | . | -5% | 55%[activator] | . | . | . | 5% | 1%
CCCCn1cnc2cc(C)c(C)cc21 | . | -7% | -18% | . | -9%[46.1 µM] | 5%[46.1 µM] | 0% | 2%
CC(C)C(=O)N1CCN(c2ccccc2NC(=O)c2ccc([N+](=O)[O-])o2)CC1 | . | -9% | 0% | . | -26%[46.1 µM] | -24%[46.1 µM] | -13% | -4%
CCOc1ccc(C2N(c3ccc(F)cc3)C(=O)C3CCCN32)cc1 (stereo not given) | -6% | 3% | -7% | 2.5% | . | . | 4% | -10%
Cn1c(=O)cc(OCC(=O)NCc2cccs2)c2ccccc21 | . | . | 7% | . | 12%[46.1 µM] | -20%[46.1 µM] | 5% | 7%
CCCCn1nnnc1NCc1cc(OC)c(OC)c(OC)c1 | -7% | 7% | 0% | 2.2% | 4% | 17% | 0% | 0%
N#CCC(=O)NC(=O)NCC1CC1 | -4%&-3% | -32% | -20% | -4.4%&1.6% | -7% | 1% | ? | 0%
O=C(/C=C/c1ccco1)OCC1CCCN2CCCCC12 (stereo not given) | . | 4% | 15% | . | -13%[46.1 µM] | 3%[46.1 µM] | 2% | -18%
O=C(CSc1nc2ccccc2nc1Cc1ccc(Cl)cc1)N1CCN(c2ccccc2)CC1 | 4% | . | -8% | 3.1% | . | 7%[46.1 µM] | . | .
O=C(c1ccc(F)cc1)N(C(=O)c1ccc(F)cc1)c1ncccn1 | . | . | 2% | . | -25%[46.1 µM] | -25%[46.1 µM] | -3% | -3%
COc1cc2nc(CC(C)C)n(NC(=O)c3ccccc3Br)c(=O)c2cc1OC | . | 9% | -14% | . | . | . | -7% | 1%
Cc1onc(-c2ccccc2Cl)c1C(=O)N1C=CC(C(F)(F)Cl)=NCC1 | -5% | 7% | -5% | 1.0% | 9% | 4% | 5% | 3%
Cc1ccccc1CSc1nc(-c2ccccc2)cc(=O)[nH]1 | -4% | 2% | -10% | -1.5% | -15% | 2% | 18% | -21%
O=S(=O)(Nc1nc2ccccc2nc1Cl)c1ccccc1 | 7% | -11% | 11% | -4.2% | -9% | . | 13% | -2%
O=C(Nc1ccc(Cl)cc1)Nc1nnc(CSc2ccc(Cl)cc2)s1 | 12% | -4% | ? | -0.2% | ? | 1%[46.1 µM] | 10% | -3%
COc1cc(C(=O)N2CCN(C3CCCCC3)CC2)cc(OC)c1OC | . | -3% | -13% | . | . | . | -5% | -2%
COc1ccc2c(c1)c1ncn(Cc3ccco3)c(=O)c1n2C | ? | -39% | -20% | -24% | ? | -14% | 2% | 1%
Brc1ccc(/C=N/c2nc3ccccc3n2CCN2CCOCC2)cc1 | -5% | 2% | 0% | -8.7% | 17% | -1% | 4% | 9%
COc1cccc(-c2ncc3ccccc3c2COC(=O)c2ccc(C(C)(C)C)cc2)c1 | . | . | -21% | . | 1% | . | -3% | -7%
Cc1ncc([N+](=O)[O-])n1CC(=O)Nc1ccccc1F | . | 0% | 8% | . | . | . | 1% | 3%
O=C(C1CC1)N1CCc2cc(S(=O)(=O)NC3CCN(Cc4ccccc4)CC3)ccc21 | -3% | 4% | -27% | -4.3% | ? | -18% | 4% | 0%
COc1cc(OC)cc(C(=O)NCC(=O)N2CCCCC2)c1 | -2% | -16% | 0% | 3.1% | 17% | 14% | ? | -4%
COc1ccc(C)cc1NC(=O)COC(=O)C1CCN(C(=O)c2ccc(Cl)cc2)CC1 | . | -6% | -4% | . | -11%[46.1 µM] | 2%[46.1 µM] | 0% | 2%
Cc1cc(C)c(NC(=O)C2CC(=O)N(c3ccc4c(c3)OCCO4)C2)c(C)c1 (stereo not given) | 11% | 3% | -17% | 1.5% | ? | 7% | -4% | 2%
O=S(=O)(Nc1nc2ccccc2[nH]1)c1ccc2ccccc2c1 | -2% | 5% | . | -20% | -2% | 26% | -5% | -2%
Cc1cc(C(=O)CSCCCn2c(=O)[nH]c3ccccc32)c(C)n1C | -4% | -6% | 3% | 3.1% | ? | 2% | 0% | 8%
CC(O)CNCc1cccc2ccccc12 (stereo not given) | -2% | 4% | 5% | 0.3% | -9% | -3% | -2% | 3%
O=C(Nc1ccc([N+](=O)[O-])cc1)N1CCc2ccccc2C1 | . | -71% | 33%[activator] | . | -22% | 15% | -19% | 7%
COc1ccccc1NC(=O)CN1CCC(n2c(C)nc3cc(F)ccc32)CC1 | ? | -10% | -23% | 0.5% | ? | 11% | 0% | 7%
Cc1ccsc1C(=O)OCc1nc2ccccc2c(=O)[nH]1 | -8% | -56% | 33%[activator] | 1.5% | 20% | 2% | -16% | 17%
Fc1ccc(-c2ccc(CNCCSc3nnnn3-c3ccccc3)o2)cc1Cl | ? | . | ? | -5.1% | -1%[46.1 µM] | 19%[46.1 µM] | . | .
CSc1ccc(CCNC(=O)Cn2ncc3c(=O)oc4ccccc4c32)cc1 | -14% | . | -15% | -0.1% | 3%[46.1 µM] | 13%[46.1 µM] | . | .
COc1ccc([N+](=O)[O-])cc1NC(=O)c1csc(C)c1 | . | 14% | 17% | . | . | . | 1% | 6%
COc1ccc(-c2nc3n(n2)C(c2cccc(C)c2)C(C(N)=O)=C(C)N3)cc1OC (stereo not given) | 9% | . | -7% | -0.6% | 2%[46.1 µM] | -16%[46.1 µM] | . | .
CC1CCC(NC(=O)c2ccc3c(c2)N(Cc2cccc(Cl)c2)C(=O)c2ccccc2S3=O)CC1 (stereo not given) | ? | . | 41%[activator] | -1.9% | . | -3%[46.1 µM] | . | .
CCOC(CNC(=O)Cn1nc(Cc2ccncc2)c2ccccc2c1=O)OCC | . | -5% | -13% | . | -2%[46.1 µM] | 9%[46.1 µM] | -1% | 2%
O=C(NNC1=Nc2cccc3cccc1c23)c1ccc(Br)cc1 | . | -31% | 0% | . | ? | -16%[46.1 µM] | 1% | 0%
COc1ccccc1NC(=O)CC1C(=O)NCCN1C(=O)Nc1ccc(Cl)c(Cl)c1 (stereo not given) | ? | 1% | ? | -7.9% | ? | 2% | -5% | -5%
CC1CCCC(O)(C(C(=O)O)c2ccccc2)C1 (stereo not given) | . | . | -13% | . | -4%[46.1 µM] | ? | . | 6%
COc1cc(NC(=S)NCc2ccco2)cc(OC)c1 | -1% | 3% | 56%[activator] | -2.5% | 1% | 17% | -18% | -6%

Continued.
SMILES | Cruzain inh noDet | NS1 inh | StopGo reporter | Cruzain inh Det | MARV entry inh | LASV entry inh | SARS PLP yeast | RE007 growth inh
Cc1c(C(=O)Nc2ccccc2)c2cc(O)ccc2n1Cc1ccccc1 | . | 28% | 9% | . | -7% | -7% | -1% | -3%
COC(=O)CCC(=O)Nc1cccc(Cl)c1 | 0% | -8% | -4% | -0.7% | 0% | 4% | -6% | 24%
CCCn1c(SCC(=O)NCc2ccco2)nnc1C(C)C | -2% | 9% | -10% | 5.4% | ? | 12% | -2% | -3%
COC(=O)c1ccc(C(=O)OC)c(NC(=O)c2ccc(-c3ccccc3)s2)c1 | 3% | . | -10% | -2.7% | 21%[46.1 µM] | 0%[46.1 µM] | . | .
